S aureus helic: S. aureus DNA helicase inhibition | purified S. aureus helicase, fluorescence unwinding assay; about half of the hits fall short of the stated cut | inhibition, %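 (tested at about 80 µM)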 | 120,000 compounds, 0.05% hits;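 active = both duplicates at 50% or more, or one of them with a favoured structure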;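 note: 0% = mean of negative control wells and 100% = mean of positive control wells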
MgrA-DNA mod: alters Staphylococcus aureus MgrA binding to DNA. fluorescence polarization. inhibition, %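 (about 10 µg/mL by stock and volumes)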. 84,000 compounds, 0.13% hits. AID 602314;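 active = above 50% in either of two replicates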;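 note: 0% = protein plus DNA without compound and 100% = DNA alone without protein; higher means less MgrA bound to DNA so lower polarization; one replicate is shown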
* = called active by the depositor; x = no result given.

Fields – MgrA-DNA mod | S aureus helic
S=C(c1cn(Cc2ccccc2)c2ccccc12)N1CCCCC1
→ 0.9 | 7
O=C(c1cccc(F)c1F)N1CCCCC1
→ -0.6 | 11
O=C1c2ccccc2C(=O)c2c1oc1c3c(ccc21)OCN(CC1CCCO1)C3 (stereo unspecified)
→ x | 17
C=CCSc1ncnc2c1cnn2-c1ccc(Cl)cc1
→ x | 5
O=C(NC1(C(=O)O)CCCCC1)c1cccs1
→ x | -13
CC1(C)CC2CC(C)(CN2C(=O)Cc2ccccc2)C1 (stereo unspecified)
→ 2.2 | -3
CC(C)(C)Nc1cccccc1=NCc1ccccc1
→ 19 | -5
Cc1ccc(NC(=O)CCn2c(=O)sc3ccccc32)cc1C
→ x | -38
Cc1cccc(C(=O)OC(C)C(=O)NCC2CCCCC2)c1O (stereo unspecified)
→ x | -5
COc1ccc(C2Nn3c(C)nnc3SC2C(=O)c2ccc(Cl)cc2)cc1 (stereo unspecified)
→ x | 2
CCOC(=O)c1[nH]c(COC(=O)c2ccc3c(c2)OCO3)c(C(=O)OCC)c1C
→ x | -5
Cc1ccc2c(CC(=O)OC(C)C(=O)Nc3ccc4c(c3)OCCO4)coc2c1 (stereo unspecified)
→ x | -1
N#C/C(=C/c1ccccc1)C(=O)Nc1ccc(O)cc1
→ 1.8 | 10
Brc1ccc2nc(N3CCCC3)sc2c1
→ 0.6 | 4
CSc1nnnn1-c1c(C)cccc1C
→ -1.1 | x
O=C(C1CC(c2ccc(Cl)cc2)=NO1)N1CCCC1 (stereo unspecified)
→ 0.0 | -2
N#CCSc1nc2ccccc2s1
→ -0.1 | x
CCOC(=O)C1CCCN(C(=O)CCS(=O)(=O)Cc2ccccc2)C1 (stereo unspecified)
→ -9.5 | 5
NC(=O)c1ccccc1N=Cc1ccc(O)c(O)c1
→ 0.1 | 9
CC(=O)C1=C(c2ccccc2)OC(N)=C(C#N)C1c1ccccc1F (stereo unspecified)
→ -1.2 | x
O=C(Cn1ncc2c(=O)oc3ccccc3c21)NCCN1CCN(c2ccccc2F)CC1
→ x | 19
CCC(C)NC(=O)CN1C(=O)C(CC)Sc2ccccc21 (stereo unspecified)
→ -0.7 | -1
COC(=O)C1C(=O)c2c([nH]c(C(=O)OC3CCCCCC3)c2C)CC1C (stereo unspecified)
→ x | 8
CC1=NN(C(=O)c2ccco2)C(O)(c2ccncc2)C1 (stereo unspecified)
→ -0.2 | 12
O=C(c1ccc(S(=O)(=O)N2CCCCC2)cc1)N1CCN(c2ccccc2F)CC1
→ x | 6
O=C(O)COc1ccc(/C=C2/SC(=O)NC2=O)cc1
→ x | 13
CN1C(=O)Cc2ccccc2C1=O
→ x | 13
COCC(C)n1c(COc2ccccc2F)n[nH]c1=S (stereo unspecified)
→ x | -1
Cc1cc(=O)oc2cc(OC(=O)c3cc(F)c(F)c(F)c3F)ccc12
→ x | -6
O=C(CCCn1c(=O)[nH]c2ccccc2c1=O)NCCc1ccccc1
→ -0.9 | 6
CC(=O)Nc1nc(COc2ccc3ccccc3c2)cs1
→ x | 22
N#Cc1ccc(CN2CCN(CC(=O)NC(=O)Nc3ccccc3F)CC2)cc1
→ x | -7
CCOc1ccccc1NC(=O)COC(=O)CCc1nc(=O)c2ccccc2n1C
→ x | 4
Oc1c(Cl)cc(Cl)cc1C=Nc1ccc2c(c1)COCO2
→ -0.2 | x
Cn1c(=O)c2nc(NCc3ccccc3)cnc2n(C)c1=O
→ x | 9
N#CC1=C(N)Nc2c(oc(CO)cc2=O)C1c1conc1-c1ccc(F)cc1 (stereo unspecified)
→ x | -37
Cc1ccc(OCC(=O)Nc2ccc(N3CCOCC3)cc2)c(-n2nc3ccccc3n2)c1
→ 0.1 | 9
CCN(CC)CCn1c(NCc2ccncc2)nc2ccccc21
→ x | 27
CC1=NCCN1CCNC(=O)Nc1cc(C)cc(C)c1
→ 0.9 | x
COC(=O)c1ccccc1-n1cnc2ccccc2c1=O
→ 2.8 | 0
CN1/C(=C\C(=S)NC(=O)c2ccco2)C(C)(C)c2ccccc21
→ x | -17
CN(C)C(CNC(=O)c1ccc(S(=O)(=O)N(C)C)cc1)Cc1ccccc1 (stereo unspecified)
→ x | -7
COC(=O)Cn1cnc2sc(-c3ccccc3)cc2c1=O
→ -0.7 | -7
CC1CCc2ccccc2N1S(=O)(=O)c1ccc(CCC(=O)O)cc1 (stereo unspecified)
→ x | 0
Cc1cc(=O)n2[nH]c(C3CC3)cc2n1
→ 3.6 | x
COc1ccc(-c2cnnc(N/N=C/c3c(C)[nH]n(-c4ccccc4)c3=O)n2)cc1
→ x | 30
Cc1cn2c3c(=O)n(C)c(=O)n(C)c3nc2n1Cc1ccccc1
→ x | 12
O=C(Nc1cccc(F)c1)c1cccc(Cl)c1
→ -2.5 | x
CC(C)(C)C(=O)COC(=O)c1nonc1N
→ x | 1
CN(C(=O)c1cccc(S(=O)(=O)N2CCCCC2)c1)c1ccccc1
→ 4.1 | 6

(more compounds)
Fields – MgrA-DNA mod | S aureus helic
CC1CN(c2nc3ccccc3nc2SCC(=O)NCCc2ccccc2)CC(C)O1 (stereo unspecified)
→ -1.9 | 5
c1ccc2[nH]c(CN3CCCCC3)nc2c1
→ -0.1 | -3
CC(=O)Nc1nnc(CCS(=O)(=O)c2ccc(C)cc2)s1
→ 2.4 | 9
COc1cccc2cc(C#N)c(=N)oc12
→ 0.6 | x
O=C(CSc1nc2ccccc2[nH]1)NC1CCCc2ccccc21 (stereo unspecified)
→ 0.2 | -7
C/C(=N/NC(=O)CC1N=C(Cc2ccccc2)NNC1=O)c1ccco1 (stereo unspecified)
→ -0.8 | 12
Cc1ccc2cc3c(N)nn(C(=O)c4ccccc4F)c3nc2c1
→ 0.9 | 10
CC1CCCC(NC(=O)c2cc(=O)[nH]c3ccc(Br)cc23)C1C (stereo unspecified)
→ x | 7
CSc1nc(C)cc(OCC(=O)N2CCOCC2)n1
→ x | 7
CSc1nccc(-c2ccc(Br)s2)n1
→ -0.4 | x
COc1ccc(CNC(=O)C(OC(=O)c2ccco2)c2ccc(C)cc2)cc1 (stereo unspecified)
→ -1.4 | 3
O=c1oc2ccccc2cc1-c1nc(-c2ccc(C(F)(F)F)cc2)no1
→ x | 1
COC(=O)CNC(=O)c1cn(CC(C)C)c(=O)c2cc(OC)c(OC)cc12
→ 2.9 | 8
Cc1cnc(C(=O)OC(C)C(=O)Nc2cccc(C(F)(F)F)c2)cn1 (stereo unspecified)
→ x | -6
CCn1c(=O)c(-c2[nH][nH]c(=O)c2/C=N/c2nccs2)c(O)c2ccccc21
→ 13 | 18
Cc1ccc(C(C#N)CC(=O)c2ccc(Cl)cc2)cc1 (stereo unspecified)
→ 0.2 | x
COc1cccc(CNC(=O)c2cccc(S(=O)(=O)N3CC(C)OC(C)C3)c2)c1 (stereo unspecified)
→ x | -14
Cc1nn(-c2ccccn2)c2c1-c1nc(-c3ccc(Cl)cc3)ncc1CC2
→ x | 4
O=C(Nc1ccc2c(c1)OCCO2)c1cccc2c1C(=O)N(Cc1cccnc1)C2
→ 9.8 | 2
CCc1ccc(NC(=NC)c2ccco2)cc1
→ x | 7
CCOC(=O)c1cc2nc(Nc3ccc(OC)cc3)sc2s1
→ x | -1
CCCC(Nc1cc(Cl)cc(Cl)c1)n1nnc2ccccc21 (stereo unspecified)
→ -1.8 | -3
CC1CCCCC1NS(=O)(=O)c1cccc2nsnc12 (stereo unspecified)
→ x | 20
CC(C)(C)NC(=S)Nc1ccccc1C(F)(F)F
→ -2.5 | x
COC(=O)c1c(-c2c(Cl)cccc2Cl)noc1NC(=O)NN1CCOCC1
→ x | -11
O=C(CC(c1cccs1)N1Cc2ccccc2C1=O)NCc1ccc(CN2CCOCC2)o1 (stereo unspecified)
→ x | -14
C=CCn1c(C)cc(C(=O)COC(=O)c2oc3ccccc3c2COC)c1C
→ x | 1
Clc1ccc(N2CC=CCC2)nn1
→ x | -8
COc1cc(Br)c(CN(CCc2ccc(O)cc2)C(=O)C(F)(F)F)cc1O
→ -5.9 | 15
O=C(Nc1ccc(N2CCN(Cc3ccccc3)CC2)cc1)c1ccccc1F
→ 19 | 9

One compound at a time (already shown). Order of screens: MgrA-DNA mod	S aureus helic
Shown for CCC(C)NC(=O)CN1C(=O)C(CC)Sc2ccccc21 (stereo unspecified) → -0.7	-1
Shown for Cc1cn2c3c(=O)n(C)c(=O)n(C)c3nc2n1Cc1ccccc1 → x	12
Shown for O=C(C1CC(c2ccc(Cl)cc2)=NO1)N1CCCC1 (stereo unspecified) → 0.0	-2
Shown for C=CCn1c(C)cc(C(=O)COC(=O)c2oc3ccccc3c2COC)c1C → x	1
Shown for O=C(Cn1ncc2c(=O)oc3ccccc3c21)NCCN1CCN(c2ccccc2F)CC1 → x	19

The main list resumes, repeating the 5 entries before the break.
Fields – MgrA-DNA mod | S aureus helic
O=C(CC(c1cccs1)N1Cc2ccccc2C1=O)NCc1ccc(CN2CCOCC2)o1 (stereo unspecified)
→ x | -14
C=CCn1c(C)cc(C(=O)COC(=O)c2oc3ccccc3c2COC)c1C
→ x | 1
Clc1ccc(N2CC=CCC2)nn1
→ x | -8
COc1cc(Br)c(CN(CCc2ccc(O)cc2)C(=O)C(F)(F)F)cc1O
→ -5.9 | 15
O=C(Nc1ccc(N2CCN(Cc3ccccc3)CC2)cc1)c1ccccc1F
→ 19 | 9
COc1ccc(C(=O)c2ccc(C)cc2)cc1
→ x | -23
CC(=O)N1CC(C)Oc2ccc(S(=O)(=O)Nc3ccccc3C)cc21 (stereo unspecified)
→ x | -14
C=CCN(C(=O)Cc1c(C)noc1C)c1nc(-c2ccc(S(C)(=O)=O)cc2)cs1
→ x | 21
Cc1n[nH]c(C)c1Br
→ x | 4
COC(=O)C1(N)CCCCC1
→ x | 7
CN1/C(=C/C(=O)C2CC2)C(C)(C)c2ccccc21
→ -1.5 | -4
Brc1cc(Br)c2ncc(-c3ccc4ccccc4n3)cc2c1
→ 0.9 | 8
CNC(=O)Nc1cc(C(F)(F)F)cc(C(F)(F)F)c1
→ 0.8 | x
CC(C)c1ccc(NC(=O)NCCS(C)=O)cc1 (stereo unspecified)
→ -0.5 | 2
O=C(O)c1cccc(CN2CCN(c3ccccc3)CC2)c1
→ -0.3 | -11
CC(C)NCC(O)COc1ccccc1 (stereo unspecified)
→ -4.4 | -21
CCOC(=O)c1ccc(N2C(=O)NC(C(F)(F)F)(C(F)(F)F)C3=C2CC(C)(C)CC3=O)cc1
→ 0.7 | 12
COc1cc(/C=C2/N=C(c3ccccc3)N(C)C2=O)cc(OC)c1OC
→ -1.4 | x
CCOc1ccc(S(=O)(=O)N(C)c2ccc(OCC(=O)N(C)C3CCN(C)CC3)cc2)cc1
→ x | -21
CS(=O)(=O)c1ccc(NC(=O)c2ccccc2-n2cnnn2)cc1
→ x | -15
O=C(COC(=O)C12CC3CC(CC(O)(C3)C1)C2)Nc1cccc2nsnc12
→ x | -14
NS(=O)(=O)c1ccc(NC(=O)CCC2COc3ccccc3O2)cc1 (stereo unspecified)
→ 0.0 | 8
CSC1=N/C(=C\c2ccc(Cl)cc2)C(=O)N1CCOc1ccc(Cl)cc1
→ 3.0 | x
Cc1cc(C)c(C)c(OCCCSC#N)c1
→ 4.8 | 10
CCOC(=O)NC(=O)c1ccc2ccccc2n1
→ x | 7
O=C(NNc1ccc(OC(F)(F)F)cc1)C1CCCCC1
→ x | 17
O=C(O)c1ccccc1C(=O)Nc1ccc(Cl)cc1
→ x | -14
CCOc1ccc2nc(NC(=O)c3ccc(C)cc3)sc2c1
→ x | -2
CNC(=S)N/N=C(\C)c1ccc(N2CCCCCC2)cc1
→ x | 9
O=C(OCc1ccco1)c1sc2ccccc2c1Cl
→ 10 | -10
O=C(CSc1nc2ccccc2o1)N=Nc1c(O)[nH]c2ccccc12
→ 3.0 | -1
CCCCOCC1CC2(CC(C)(c3csc(N)n3)OC2=O)C(=O)O1 (stereo unspecified)
→ x | -6
O=C(Nc1ccc(-c2nc3ccccc3o2)cc1)C1CC1
→ x | 11
Cc1cc(C)cc(CC(C(=O)Nc2ccccc2)C(C)C(=O)O)c1 (stereo unspecified)
→ x | 1
COCCN1Cc2cccc(C(=O)NCc3cccs3)c2C1=O
→ x | 25
CCn1nnc2cc(C(=O)OCC(=O)N(C)Cc3cccc(F)c3)ccc21
→ x | -13
Cc1cc(N/C=C(\C#N)S(=O)(=O)c2ccc(Cl)cc2)nc(C)n1
→ x | -8
Cc1ccc(S(=O)(=O)N2CC(=O)N(O)C2c2ccccc2)cc1 (stereo unspecified)
→ 2.0 | 10
COC(=O)c1ccc(NC(=O)C2CC(=O)N(C)C(=Nc3ccc4c(c3)OCO4)S2)cc1 (stereo unspecified)
→ 0.7 | x
Cc1cc(C)c(C)c(S(=O)(=O)NC(C)C)c1C
→ -0.6 | 14
CCC1CN(C(=O)NCc2ccccc2)c2ccccc2O1 (stereo unspecified)
→ x | 34
CCN1CCN(Cc2oc(CO)cc(=O)c2O)CC1
→ x | 1
N#Cc1c(N)c(C#N)c(-c2ccccc2)c2c1CCCC2
→ -0.8 | 11
Cc1ccc(C2C(C#N)=C(SCC(=O)N3CCN(Cc4ccccc4)CC3)NC3=C2C(=O)CCC3)cc1 (stereo unspecified)
→ x | -1
CCCOc1ccc(OCCSc2nc3ccccc3n2CC(=O)O)cc1
→ -0.8 | x
O=C1/C(=C/c2ccc3ccccc3c2)COc2ccccc21
→ -0.9 | x
NNC(=S)Nc1ccc2c(c1)OCO2
→ x | 28
CC(C)(C)S(=O)(=O)c1cnc(-c2ccccn2)nc1N
→ 5.1 | x
CC(=O)N(c1ccccc1)c1nc(COC(=O)C2CCC2)cs1
→ x | -7
O=C(c1ccco1)N1CCN(C(=O)c2ccc(COc3ccc4c(c3)CCC4)o2)CC1
→ x | -12
O=C(CSc1cc(Cl)ccc1Cl)OCC(=O)c1ccccc1
→ 3.1 | 0
O=C(O)CCC(=O)Nc1ccccc1C#Cc1ccc(Br)cc1
→ -2.5 | -1
O=C(O)CCCCCN1C(=O)C2C3C=CC(C3)C2C1=O (stereo unspecified)
→ x | -19

High-throughput results (PubChem BioAssay)

These rows are one share of the data, so the mix of outcomes need not match the whole.
